Rango dissoc inh – qHTS Assay for Inhibitors of RanGTP induced Rango (Ran-regulated importin-beta cargo) - Importin beta complex dissociation; Snurportin-1 (Homo sapiens) + GTP-binding nuclear protein Ran (Homo sapiens) + Importin …; Biochemical FRET Rango-importin beta, RanGTP-induced dissociation; Potency, µM (highest dose often 46.1 µM), inactives show top-dose activity change, negative = inhibition; 0.071% of 340,000 active; AID 540253, 2011; active means falling FRET ratio curve, often poorly fitted, with flat reads before Ran was added; inconclusive means other falling curves, or compound fluorescence or quenching; inactive means flat or rising ratio curve;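 further: potency means the concentration at half of the fitted maximal effect; % of control where 0% means no effect; nearly all actives have a fitted effect of over 45% in size; -100% = wells without RanGTP and RCC1; the record marks most hits as doubtful in a second field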
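Two FRET readings bracket the reaction: one 5 min after compound meets Rango–importin beta, another 45 min after RanGTP-RCC1 (0.6 uM Ran, 0.2 uM RCC1, 2 mM GTP) is added. Only the second defines inhibition.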
miR-21 FLuc – qHTS Assay for Modulators of miRNAs and/orActivators of miR-21 | Potency, µM (titrated, usually from 38.3 µM), for the others: top-dose reporter change, positive = more light | AID 2288, 2010 | HeLa miR-21 FLuc reporter, luciferase, 48 h | 340,000 tested, under 10 active; active = well fitted rising curve with a large enough effect; inconclusive = small, poorly fitted or top-dose-only effect; inactive = no such curve, though single readings can be large or run the other way;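 further: % of control where 0% means no effect; miR-21 action dims this reporter so a rising signal means less miR-21 action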
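Compounds were titrated across several concentrations (up to approximately 40 uM) and incubated 48 hours with HeLa miR-21-FLuc reporter cells (miR-21 target sequence downstream of FLuc, endogenous miR-21). Readout was firefly luciferase luminescence after lytic detection reagent.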
GLA inh pH 4.5 – qHTS Assay for Inhibitors of Human alpha-Galactosidase at pH 4.5; 230,000 tested, under 10 active; purified enzyme, 4-MU-alpha-Gal fluorescence, pH 4.5; activity change, negative = inhibition, % at 105 µM; AID 1467, 2008; Alpha-galactosidase A (Homo sapiens), P06280; inconclusive = small, poorly fitted or top-dose-only inhibition, or a rising curve; inactive = flat fitted curve, though single readings scatter; no compound was filed as active;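 further: 0% = full activity with enzyme and -100% = basal without enzyme; dose as in the result columns while the protocol names 77 µM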
Target sequence (P06280 whole entry, looked up): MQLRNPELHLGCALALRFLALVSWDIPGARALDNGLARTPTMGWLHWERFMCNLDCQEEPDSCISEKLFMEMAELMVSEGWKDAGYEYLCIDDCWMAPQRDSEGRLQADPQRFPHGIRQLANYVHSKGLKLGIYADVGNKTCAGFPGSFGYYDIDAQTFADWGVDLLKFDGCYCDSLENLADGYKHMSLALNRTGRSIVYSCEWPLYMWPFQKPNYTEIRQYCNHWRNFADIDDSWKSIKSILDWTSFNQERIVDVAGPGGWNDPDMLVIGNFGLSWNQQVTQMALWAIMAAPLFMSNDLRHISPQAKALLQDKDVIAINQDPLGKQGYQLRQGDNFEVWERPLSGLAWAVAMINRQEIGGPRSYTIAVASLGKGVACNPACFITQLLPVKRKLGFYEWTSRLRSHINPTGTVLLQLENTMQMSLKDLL
Rango-impB inh – qHTS Assay for Inhibitors of Rango (Ran-regulated importin-beta cargo) - Importin beta complex formation; 0.031% of 340,000 active; Importin subunit beta-1 (Homo sapiens), Q14974; Rango CFP/YFP FRET sensor + importin beta, 45 min; Potency, µM (top dose mostly 92.2 µM), without a hit: top-dose inhibition of complex formation; active = rising FRET ratio curve, often small or poorly fitted; inconclusive = mostly compound fluorescence or quenching in the first reads; inactive = flat curves in all reads;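 further: potency means the concentration at half of the fitted maximal effect; 0% = DMSO wells and 100% = buffer wells lacking importin beta; nearly all actives have a fitted effect of over 15% in size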
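FRET biosensor Rango (snurportin 1 IBB between N-terminal EYFP and C-terminal Cerulean), 50 nM in PBS/1 mM DTT/0.02% Tween-20/0.1% BSA, preincubated 5 min RT with compound; 0.125 microM importin beta added, 45 min RT, CFP/YFP FRET ratio read.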
* marks the source's active call; other numbers are inactive results.

Screening CSc1ccc(C2Nc3cccc4cccc(c34)N2)cc1 returned Rango dissoc inh -6%, miR-21 FLuc -3% and Rango-impB inh 0.8%.
CCCS(=O)(=O)NCc1cn2c(C)csc2n1 was read as Rango dissoc inh -5%, miR-21 FLuc -42%, GLA inh pH 4.5 1 and Rango-impB inh -0.8%.
Screening S=C(NCCCn1ccnc1)NC1CCCCC1 returned Rango dissoc inh 0%, miR-21 FLuc -4%, GLA inh pH 4.5 -5 and Rango-impB inh -0.5%.
`Cc1ccc(NC(=O)Nc2nnc(-c3ccccc3)o2)cc1` gave Rango dissoc inh -5%, miR-21 FLuc -46%, GLA inh pH 4.5 -5 and Rango-impB inh 0.3%.
For CCOc1ccc(OCCn2c(SCC(=O)O)nc3ccccc32)cc1 the results were Rango dissoc inh 26%, miR-21 FLuc -10% and Rango-impB inh 4.1%.
Screening CC(=O)c1ccccc1OCCOc1ncnc2sccc12 returned Rango dissoc inh -9%, miR-21 FLuc -26%, GLA inh pH 4.5 -7 and Rango-impB inh inconclusive.
`Cc1nc2nc(C)c(CCC(=O)N3CCN(c4ccccc4)CC3)c(C)n2n1` gave Rango dissoc inh 4%, miR-21 FLuc 0%, GLA inh pH 4.5 7 and Rango-impB inh -0.7%.
Screening Cc1ccc(Cn2ccc(NC(=O)c3c(-c4ccccc4Cl)noc3C)n2)cc1 returned Rango dissoc inh -24%, miR-21 FLuc 12%, GLA inh pH 4.5 4 and Rango-impB inh 4.2%.
For CCCCCCSc1ccc(-c2nc3ccc(Cl)cn3c2NC2CCCCC2)cc1 the results were Rango dissoc inh -7% and Rango-impB inh 0.5%.
For COCc1cc(C)nc(SCC(=O)Nc2ccccc2N2CCOCC2)c1C#N the results were Rango dissoc inh 15%, miR-21 FLuc -1% and Rango-impB inh inconclusive.
`Cc1ccccc1CSCC(=O)NC(=O)NC(C)(C)C` gave Rango dissoc inh 1%, miR-21 FLuc -12%, GLA inh pH 4.5 5 and Rango-impB inh -3.9%.
For O=c1c2c(-c3ccccc3)csc2nc2c3ccccc3c(NCCN3CCOCC3)nn12 the results were Rango dissoc inh -6%, miR-21 FLuc 10%, GLA inh pH 4.5 -26 and Rango-impB inh inconclusive.
Cc1cc(NC(=O)CSc2nc3ccccc3[nH]2)no1 was read as Rango dissoc inh -9%, miR-21 FLuc -1%, GLA inh pH 4.5 11 and Rango-impB inh -1.4%.
For CSc1ccc(Cl)c(C(=O)NCCCn2ccnc2)c1 the results were Rango dissoc inh 11%, miR-21 FLuc 0% and Rango-impB inh -2.9%.
For NC(=S)c1cc2cc(Br)ccc2oc1=O the results were Rango dissoc inh -6%, miR-21 FLuc 2%, GLA inh pH 4.5 3 and Rango-impB inh 7.1%.
For O=C(C1=C(O)C(=O)N(CCN2CCOCC2)C1c1cccc(Br)c1)c1cccs1 (stereo not given) the results were Rango dissoc inh -1%, miR-21 FLuc 1% and Rango-impB inh -4.1%.
For CC(C)OCCCNC(=O)C1CCC(CNS(=O)(=O)c2ccccc2)CC1 (stereo not given) the results were Rango dissoc inh 0%, miR-21 FLuc -10%, GLA inh pH 4.5 3 and Rango-impB inh -1.6%.
Screening CCC1(CC)C(=O)N(C)C(=O)NC1=Nc1ccc(OC)cc1 returned Rango dissoc inh 5%, miR-21 FLuc 3%, GLA inh pH 4.5 -5 and Rango-impB inh inconclusive.
Cn1c(CCN2CCCCC2)nc2cc(NC(=O)COc3ccc(Cl)cc3)ccc21 was read as Rango dissoc inh 21%, miR-21 FLuc 6% and Rango-impB inh 1.9%.
O=C(O)c1cccc(S(=O)(=O)NCc2cccs2)c1 was read as Rango dissoc inh -9%, miR-21 FLuc -2%, GLA inh pH 4.5 -18 and Rango-impB inh -4.0%.
`Cc1ccc(S(=O)(=O)Nc2ccccc2F)cc1C(=O)N1CCN(c2ccccc2O)CC1` gave Rango dissoc inh 29% and Rango-impB inh -2.8%.
Screening CCOc1ccc(OCc2ccc(C(=O)Nc3ccc(Cl)cn3)o2)cc1 returned Rango dissoc inh -6%, miR-21 FLuc -15%, GLA inh pH 4.5 -18 and Rango-impB inh inconclusive.
`Cc1ccc(/C=N/n2cnc3sc(-c4ccccc4)cc3c2=O)o1` gave Rango dissoc inh -8%, miR-21 FLuc -39%, GLA inh pH 4.5 -5 and Rango-impB inh 5.9%.
For Nn1c(SCC(=O)Nc2cc(S(=O)(=O)N3CCOCC3)ccc2Cl)nnc1-c1cccnc1 the results were Rango dissoc inh -16%, miR-21 FLuc 1%, GLA inh pH 4.5 9 and Rango-impB inh 0.1%.
For CCC1Oc2ccc(C)cc2N(CC(=O)NCCN2CCOCC2)C1=O (stereo not given) the results were Rango dissoc inh 23%, miR-21 FLuc 0% and Rango-impB inh 1.0%.
For CCOC(=O)CCNC(=O)N1CCC(CCOc2ccccc2)(C(=O)OCC)CC1 the results were Rango dissoc inh 2% and Rango-impB inh 2.1%.
Screening CC(C)c1csc(CN2CCCC(CNC(=O)c3cccc4ccccc34)C2)n1 (stereo not given) returned Rango dissoc inh 12%, miR-21 FLuc 6% and Rango-impB inh 0.8%.
`COc1ccccc1OCc1nnc(SCC(=O)N2CCCC2)o1` gave Rango dissoc inh -5%, miR-21 FLuc -4% and Rango-impB inh 3.3%.
Screening CC(C)Cc1nnc(N)s1 returned Rango dissoc inh -9% and Rango-impB inh 0.5%.
For COC(=O)Nc1nn(-c2ccc(C)cc2)c(=O)c(C#N)c1C the results were Rango dissoc inh -7%, miR-21 FLuc -2%, GLA inh pH 4.5 -16 and Rango-impB inh 1.7%.
`O=C(NCCCN1CCOCC1)c1ccc2c(=O)n(-c3ccc(F)c(Cl)c3)c(=S)[nH]c2c1` gave Rango dissoc inh 2%, miR-21 FLuc 10% and Rango-impB inh -2.5%.
N=c1c2c(ncn1CCN1CCOCC1)Oc1ccc3ccccc3c1C2c1ccccc1 (stereo not given) was read as Rango dissoc inh -4%, miR-21 FLuc 23%, GLA inh pH 4.5 1 and Rango-impB inh 0.7%.
O=C(CN(c1ccccc1)S(=O)(=O)c1ccccc1)N1CCN(Cc2ccc3c(c2)OCO3)CC1 was read as Rango dissoc inh 0%, miR-21 FLuc 4%, GLA inh pH 4.5 1 and Rango-impB inh -5.8%.
CC1(C)CC(=O)C(C(c2ccco2)C2C(=O)CC(C)(C)CC2=O)C(=O)C1 was read as Rango dissoc inh 1%, miR-21 FLuc 0%, GLA inh pH 4.5 -2 and Rango-impB inh 0.7%.
`CN(Cc1ccccc1)C(=O)c1cccc(NC(=O)Cc2ccc(NC(=O)C3CCCN(C(=O)C4CC4)C3)cc2)c1` (stereo not given) gave Rango dissoc inh 21% and Rango-impB inh -3.5%.
For CCn1c(SCc2cc(=O)[nH]c3ccccc23)nnc1C1CC1 the results were Rango dissoc inh 5%, miR-21 FLuc -5%, GLA inh pH 4.5 0 and Rango-impB inh -1.7%.
Screening COCCn1c(Cc2ccccc2)nnc1SCC(=O)N1CCCC1=O returned Rango dissoc inh 25% and Rango-impB inh 3.4%.
O=C(NCC1COc2ccccc2O1)C1CCCN(S(=O)(=O)c2cnc[nH]2)C1 (stereo not given) was read as Rango dissoc inh -7%, miR-21 FLuc 0%, GLA inh pH 4.5 -3 and Rango-impB inh -3.3%.
OCC1(CO)COC(/C=C/c2ccccc2)=N1 was read as Rango dissoc inh -2%, miR-21 FLuc 5% and Rango-impB inh -3.1%.
`COC(=O)c1ccc(NC(=O)CSc2nnc(CNc3ccc(OC)cc3)n2C)cc1` gave Rango dissoc inh 1%, miR-21 FLuc -13%, GLA inh pH 4.5 -3 and Rango-impB inh -2.3%.
Screening CN(C(=O)c1ccc(NC(=O)Cc2cccc(NC(=O)C3CCN(C(=O)c4ccccc4)CC3)c2)cc1)C1CCCC1 returned Rango dissoc inh 9% and Rango-impB inh 0.8%.
CC(=O)Nc1nc2c(s1)C(=O)NCCC2 was read as Rango dissoc inh 2%, miR-21 FLuc -3%, GLA inh pH 4.5 6 and Rango-impB inh 2.7%.
CCOC(=O)C1C(=O)NCC2CCCC21 (stereo not given) was read as Rango dissoc inh 21%, miR-21 FLuc -1%, GLA inh pH 4.5 -1 and Rango-impB inh 1.7%.
`COc1ccc(S(=O)(=O)N2CCC(C)CC2)cc1OC` gave Rango dissoc inh 14%, miR-21 FLuc -8% and Rango-impB inh 2.8%.
`Oc1ccc2nc(Cc3ccccc3)[nH]c2c1` gave Rango dissoc inh 6%, miR-21 FLuc -14%, GLA inh pH 4.5 2 and Rango-impB inh 2.2%.

By substructure, the compounds so far with a furan ring, fused or not (three)
Screening CCOc1ccc(OCc2ccc(C(=O)Nc3ccc(Cl)cn3)o2)cc1 returned Rango dissoc inh -6%, miR-21 FLuc -15%, GLA inh pH 4.5 -18 and Rango-impB inh inconclusive.
`Cc1ccc(/C=N/n2cnc3sc(-c4ccccc4)cc3c2=O)o1` gave Rango dissoc inh -8%, miR-21 FLuc -39%, GLA inh pH 4.5 -5 and Rango-impB inh 5.9%.
CC1(C)CC(=O)C(C(c2ccco2)C2C(=O)CC(C)(C)CC2=O)C(=O)C1 was read as Rango dissoc inh 1%, miR-21 FLuc 0%, GLA inh pH 4.5 -2 and Rango-impB inh 0.7%.

Next entries follow.
For Cc1nc([N+](=O)[O-])nn1C12CC3CC(CC(Cl)(C3)C1)C2 the results were Rango dissoc inh -6%, miR-21 FLuc -8%, GLA inh pH 4.5 -4 and Rango-impB inh 4.6%.
For O=S(=O)(NC1CCCCC1N1CCOCC1)c1ccc(Cl)cc1 (stereo not given) the results were Rango dissoc inh -17%, miR-21 FLuc 1%, GLA inh pH 4.5 3 and Rango-impB inh -3.1%.
`COc1ccc(COC(=O)C2=C(C)NC(=O)NC2c2ccc(O)cc2)cc1` (stereo not given) gave Rango dissoc inh -7%, miR-21 FLuc 6% and Rango-impB inh 0.3%.
For CC(=O)c1cc(-c2ccccc2)n(CCC(=O)NC2CCCCCC2)c1C the results were Rango dissoc inh 1%, miR-21 FLuc -5%, GLA inh pH 4.5 1 and Rango-impB inh 0.5%.
For COc1cc(O)c2c(=O)c(-c3ccc(O[C@@H]4O[C@H](CO)[C@@H](O)[C@H](O)[C@H]4O)cc3)coc2c1 the results were Rango dissoc inh 1%, miR-21 FLuc -44% and Rango-impB inh 5.2%.
For Clc1ccc(Nc2ccc(Cl)nn2)cc1 the results were Rango dissoc inh -6%, miR-21 FLuc -17%, GLA inh pH 4.5 6 and Rango-impB inh 0.9%.
For Cc1ccc(NC(=O)c2ccc(Cl)c(N3C(=O)CCC3=O)c2)cc1 the results were Rango dissoc inh -11%, miR-21 FLuc 0% and Rango-impB inh -1.8%.
Screening COc1ccccc1Oc1c(C)oc2c(CN3CCN(CCO)CC3)c(O)ccc2c1=O returned Rango dissoc inh -1%, miR-21 FLuc -2% and Rango-impB inh -4.9%.
Screening Cc1nn(-c2ccccc2)c(C)c1NC(=O)COC(=O)CCc1ccccc1 returned Rango dissoc inh 25% and Rango-impB inh 1.8%.
For CCc1ccccc1NC(=O)C1(S(=O)(=O)c2ccc(C)cc2)CC1 the results were Rango dissoc inh 5%, miR-21 FLuc -2% and Rango-impB inh -1.1%.
O=S1(=O)CCOC[C@H](c2ccccc2)N1Cc1ccccc1F was read as Rango dissoc inh -21%, miR-21 FLuc 0% and Rango-impB inh -0.1%.
Screening Fc1ccc(Nc2nc(NCc3ccco3)c3ccccc3n2)cc1 returned Rango dissoc inh 0%, miR-21 FLuc 29%, GLA inh pH 4.5 -6 and Rango-impB inh 1.7%.
For CC1CCN(C(=O)C2CCN(S(=O)(=O)N3CCC4(CC3)OCCO4)CC2)CC1 the results were Rango dissoc inh -12%, miR-21 FLuc 2% and Rango-impB inh 0.2%.
For CCOC(=O)C1CCN(Cc2cc(C(C)(C)C)c(O)c(C(C)(C)C)c2)CC1 the results were Rango dissoc inh -17%, miR-21 FLuc 1%, GLA inh pH 4.5 -4 and Rango-impB inh -1.6%.
Cc1ccccc1-n1c(-c2ccncc2)n[nH]c1=S was read as Rango dissoc inh -15%, miR-21 FLuc -1%, GLA inh pH 4.5 5 and Rango-impB inh -3.7%.

Screening data deposited in PubChem BioAssay by National Center for Advancing Translational Sciences (NCATS).

Some of the compounds tested (hit frequency here may not be typical).
